PV pol inh – poliovirus RNA polymerase inhibition. poliovirus polymerase elongation, fluorescence polarization; active compounds read low. 150,000 tested, 0.66% active. % elongation, % (compound at 16.7 µg/mL). P03300; in the data active means % elongation below about 90%; further: some results filed as inactive read as strong as hits
Target sequence (P03300 1749-2209 limits assumed): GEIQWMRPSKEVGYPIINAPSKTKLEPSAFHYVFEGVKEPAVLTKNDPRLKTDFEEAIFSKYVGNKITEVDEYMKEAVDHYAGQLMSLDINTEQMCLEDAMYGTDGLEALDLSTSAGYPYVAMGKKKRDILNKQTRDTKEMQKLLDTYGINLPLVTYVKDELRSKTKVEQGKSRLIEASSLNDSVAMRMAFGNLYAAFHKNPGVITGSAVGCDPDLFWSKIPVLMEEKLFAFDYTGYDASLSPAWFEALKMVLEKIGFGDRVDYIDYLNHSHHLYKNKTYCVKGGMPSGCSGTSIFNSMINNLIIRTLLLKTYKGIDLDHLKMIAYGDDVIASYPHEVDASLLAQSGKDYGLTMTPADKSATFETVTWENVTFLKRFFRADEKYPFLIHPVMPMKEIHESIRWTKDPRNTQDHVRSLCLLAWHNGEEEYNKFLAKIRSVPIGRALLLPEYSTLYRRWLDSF
Mtb MenB inh – Mtb MenB enzyme inhibition; P9WNP5; AID 540299; MenB enzyme assay, absorbance read-out; some hits fall short of the stated cut; 100,000 tested, 0.43% active; inhibition, %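 (about 12 µg/mL by stock and volumes)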;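 active means mean of two replicates above 30%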;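 further: 0% = no compound and 100% = wells with inactive enzyme; the first replicate is given; strong numbers were not always called active; inactives centre near -10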
Target sequence (P9WNP5 whole entry, looked up): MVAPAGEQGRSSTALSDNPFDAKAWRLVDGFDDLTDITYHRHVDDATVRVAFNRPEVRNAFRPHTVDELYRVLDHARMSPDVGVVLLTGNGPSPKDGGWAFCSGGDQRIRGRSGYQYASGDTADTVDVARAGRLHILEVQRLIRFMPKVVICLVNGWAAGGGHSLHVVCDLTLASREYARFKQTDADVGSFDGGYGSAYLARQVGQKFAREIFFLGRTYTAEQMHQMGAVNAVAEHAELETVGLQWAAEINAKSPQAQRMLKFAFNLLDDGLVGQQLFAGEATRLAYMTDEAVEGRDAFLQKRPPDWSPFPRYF
Mtb MbtI inh – inhibitors of Mycobacterium tuberculosis siderophore enzyme MbtI. P9WFX0. purified MbtI enzyme, fluorescence intensity read-out. inhibition, %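 (about 17 µg/mL by stock and volumes)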. 100,000 tested, 0.89% active. AID 493033;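 active means above 50% in both replicates, above 80% if mildly self-fluorescent; inactive means the rest, strongly fluorescent compounds included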;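 further: 0% = mean of negative and 100% = mean of positive controls; one replicate is shown; some compounds called inactive have numbers as strong as hits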
PV pol inh intensity – further read-out of PV pol inh, marked with its call; % elongation; measured here: total intensity read-out; formula for this scale not given here;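 total fluorescence in place of polarization; lower means less elongation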
Numbers without * were called inactive; i = inactive; · = no result given; & = joins results of further samples.

Key to letters: A = PV pol inh; B = PV pol inh intensity; C = Mtb MenB inh; D = Mtb MbtI inh
> O=C(NCc1ccccc1)c1ccc(CN2CC(=O)N3CCCCC3C2=O)cc1 (configuration not stated)
  A: 103	B: 103	C: -12	D: -4

> CCN(CC)C(=O)NCC1CCCO1 (configuration not stated)
  A: 99	B: 102	C: 0	D: -12

> CCN1CCN(Cc2ccc(NC(=O)c3ccc4c(c3)N(CC)CCS4)cc2)CC1
  A: 101	B: 101	C: -17	D: 32

> CCn1c(-c2ccc3c(c2)OCCO3)cnc1SCC(=O)Nc1sccc1C#N
  A: 102	B: 106	C: -1	D: -3

> COc1ccc(CN(C(=O)CN2C(=O)COc3ccccc32)C2CCCC2)c(OC)c1
  A: 101	B: 103	C: 11	D: -8

> O=C(c1ccno1)n1nccc1-c1cc(-c2ccccc2)no1
  A: 103	B: 107	C: -9	D: -15

> O/N=C/c1ccco1
  A: 103	B: 102	C: -10	D: 15

> O=C1SCCC1NS(=O)(=O)c1ccc(Cl)c(Cl)c1 (configuration not stated)
  A: 104	B: 103	C: 5	D: 6

> CCC12CN(C(=O)c3ccco3)CC(CC)(CN(C(=O)c3ccco3)C1)C2=O
  A: 102	B: 101	C: 13	D: -15

> O=C(CN1C(=O)CCc2ccccc21)NC1CCCCC1
  A: 101	B: 103	C: 10	D: 7

> CCOC(=O)c1c2c3c(c(Cl)ccc3[nH]c1=O)C(=O)c1ccccc1-2
  A: 99	B: 103	C: -22	D: -7

> Cc1ccc(NC(=O)COc2ccc(/C=c3/sc4n(c3=O)CCN=4)cc2)cc1
  A: 100	B: 102	C: -42	D: -16

> COC(=O)CN1C(c2ccc(OC)cc2)=Nc2ccc(Cl)cc2C1c1ccccc1 (configuration not stated)
  A: 99	B: 104	C: 6	D: 8

> CCOC(=O)N1CCC(n2c(SCC(=O)NC(C)CC)nc3ccccc3c2=O)CC1 (configuration not stated)
  A: 104	B: 103	C: -12	D: -10

> COC(=O)Cc1c(C)c2ccc(OC(C)C)cc2oc1=O
  A: 101	B: 102	C: -12	D: i

> CN(C)C(=O)c1cccc2c1-c1ccccc1C2
  A: 101	B: 99	C: 12	D: 6

> Cc1ccc(S(=O)(=O)c2nc(N3CCN(c4ccccc4)CC3)sc2Cl)cc1
  A: 98	B: 98	C: -12	D: 20

> OC(c1c(F)c(F)c(F)c(F)c1F)c1c(F)c(F)c(F)c(F)c1F
  A: 99	B: 103	C: 5	D: -3

> O=C(CN(CCO)CCO)N(C1CCCCC1)C1CCCCC1
  A: 102	B: 100	C: -121	D: -4

> O=C(OCCN1CCOCC1)c1sc2ccccc2c1Cl
  A: 100	B: 106	C: -5	D: ·

> O=C1CCCC(=O)C1CC1C(=O)CCCC1=O
  A: 104	B: 105	C: ·	D: -9

> c1ccc2c(c1)N(CN1CCCC1)CC21OCCO1
  A: 102	B: 101	C: 4	D: 3

> Brc1ccccc1-c1ccc(/C=N/N2CCOCC2)o1
  A: 121	B: 121	C: -30	D: 53

> CN1N=C2c3ccccc3CCCC2C1c1cccs1 (configuration not stated)
  A: 109	B: 117	C: -10	D: -74

> Cc1cc(C)n(CCC(=O)NCCN2CCN(c3cc(Cl)ccc3C)CC2)n1
  A: 102	B: 103	C: -4	D: -9

> Clc1ccc(COC(Cn2ccnc2)c2ccc(Cl)cc2Cl)cc1 (configuration not stated)
  A: 100&100	B: 98&97	C: -10&-16	D: -16&-2

> CCn1c(C)cc(-c2csc(N)n2)c1C
  A: 96	B: 88	C: -40	D: 19

> CC1CCN(c2ccc(C(=O)O)cc2)CC1
  A: 103	B: 100	C: -36	D: 16

> Cc1cc(C(=O)NNCc2ccccc2)no1
  A: 101	B: 100	C: -6	D: -4

> COc1cc(/C=C2/SC(=Nc3cc(C)cc(C)c3)NC2=O)cc(Br)c1OC
  A: 98	B: 98	C: -11	D: 3

Some of these compounds in order of heavy-atom count, high to low.
Key to letters: A = PV pol inh; B = PV pol inh intensity; C = Mtb MenB inh; D = Mtb MbtI inh
> Cc1cc(C)n(CCC(=O)NCCN2CCN(c3cc(Cl)ccc3C)CC2)n1
  A: 102	B: 103	C: -4	D: -9

> OC(c1c(F)c(F)c(F)c(F)c1F)c1c(F)c(F)c(F)c(F)c1F
  A: 99	B: 103	C: 5	D: -3

> O=C(OCCN1CCOCC1)c1sc2ccccc2c1Cl
  A: 100	B: 106	C: -5	D: ·

> CN1N=C2c3ccccc3CCCC2C1c1cccs1 (configuration not stated)
  A: 109	B: 117	C: -10	D: -74

> c1ccc2c(c1)N(CN1CCCC1)CC21OCCO1
  A: 102	B: 101	C: 4	D: 3

> CN(C)C(=O)c1cccc2c1-c1ccccc1C2
  A: 101	B: 99	C: 12	D: 6

> Cc1cc(C(=O)NNCc2ccccc2)no1
  A: 101	B: 100	C: -6	D: -4

Limited to Mtb MenB inh, for some of the entries so far:
SMILES,Mtb MenB inh
Clc1ccc(COC(Cn2ccnc2)c2ccc(Cl)cc2Cl)cc1 (configuration not stated),-10&-16
Brc1ccccc1-c1ccc(/C=N/N2CCOCC2)o1,-30
O=C(CN(CCO)CCO)N(C1CCCCC1)C1CCCCC1,-121
CC1CCN(c2ccc(C(=O)O)cc2)CC1,-36
c1ccc2c(c1)N(CN1CCCC1)CC21OCCO1,4
CN1N=C2c3ccccc3CCCC2C1c1cccs1 (configuration not stated),-10

Remaining list, next part.
Key to letters: A = PV pol inh; B = PV pol inh intensity; C = Mtb MenB inh; D = Mtb MbtI inh
> CCc1ccc(N2CCN(S(=O)(=O)CC34CCC(CC3=O)C4(C)C)CC2)cc1 (configuration not stated)
  A: 103	B: 102	C: -19	D: -3

> C=CCn1c(SCC(=O)NC(=O)NCc2ccco2)nc2ccc(Cl)cc2c1=O
  A: 100	B: 107	C: -5	D: 19

> Cc1ccccc1Cn1c(=O)n(Cc2ccco2)c(=O)c2ccc(C(=O)NCCc3ccccc3)cc21
  A: 100	B: 101	C: -13	D: 8

> COC(=O)c1c(NC(=S)Nn2cnnc2)sc2c1CCC(C)C2 (configuration not stated)
  A: 99	B: 103	C: -15	D: 85*

> CC(=O)Oc1ccn(C)c(=O)c1C#N
  A: 100	B: 106	C: -13	D: ·

> CCOc1ccc(-c2c(C)sc(=Nc3ccccc3)n2Cc2ccco2)cc1
  A: 98	B: 100	C: -3	D: -14

> COc1cccc(/C=N/N2C(=O)CSC2=S)c1O
  A: 85*	B: 82*	C: -37	D: 4

> c1nc2c3c4c(sc3ncn2n1)CCCC4
  A: 102	B: 102	C: -83	D: 8

> N#CCCn1nc(-c2ccccc2)cc1Nc1ccccc1N
  A: 108	B: 110	C: -10	D: -6

> CCc1ccc(N=C2NC(=O)/C(=C/c3cc(C)n(CC)c3C)S2)cc1
  A: 102	B: 105	C: -146	D: -15

> COc1ccc(C(=O)CSc2ncccn2)c(OC)c1
  A: 99	B: 96	C: -26	D: -2

> CC(=O)Nc1ccc(NC(=O)/C=N/O)cc1
  A: 99	B: 95	C: -13	D: 7

> CC(CC(=O)O)CC(=O)Nc1ccccc1C(=O)O (configuration not stated)
  A: 102	B: 107	C: -11	D: 32

> CCOc1ccccc1C(=O)Nc1ccccc1
  A: 102	B: 105	C: -9	D: -6

> O=C(Nc1ccccc1)Nn1cnnc1
  A: 100	B: 102	C: -7	D: -6

> CCOC(=O)Cn1nc(-c2ccc(F)cc2)oc1=O
  A: ·	B: ·	C: -2	D: -11

> COc1ccc(N2CCN(CC(=O)NC(=O)NC3CCCC3)CC2)cc1
  A: 112	B: 116	C: -36	D: -10

> COc1ccc(C(=O)NC(c2ccc(C)cc2)c2cc(Cl)c3cccnc3c2O)cc1 (configuration not stated)
  A: 99	B: 108	C: -82	D: 3

> CC(C)(C)OC(=O)N/N=C\c1cccnc1
  A: 100	B: 103	C: -16	D: 10

> CC1CN(C(C(=O)c2c[nH]c3ccccc23)c2ccccc2)CC(C)O1 (configuration not stated)
  A: 105	B: 106	C: -27	D: 5

> NC(=O)c1c(/N=C/c2cc(Br)ccc2O)sc2c1CCC2
  A: 103	B: 99	C: ·	D: 2

> COC1(OC)CCCc2c1no[n+]2[O-]
  A: 103	B: 104	C: 24	D: -17

> COc1ccc(Cc2noc(COc3ccc(Cl)cc3)n2)cc1
  A: 105	B: 103	C: -6	D: -4

> COc1cc(NC(=O)C(C)OC(=O)Cc2ccccc2)cc(OC)c1 (configuration not stated)
  A: 104	B: 107	C: 3	D: 5

> S=C(NC1Cc2ccccc2C1)N1CCCC1
  A: 103	B: 101	C: -36	D: -27

> COc1ccccc1S(=O)(=O)Cc1ccc(C(=O)NC2CCCCC2)o1
  A: 100	B: 101	C: -12	D: 11

> Cc1ccc(C(C)C)c(OCc2ccc(C(=O)Nc3ccccc3C(F)(F)F)o2)c1
  A: 100	B: 107	C: -19	D: -33

> COc1ccccc1N1CCN(S(=O)(=O)c2c(C)sc3ncn(CC(=O)NCCN4CCOCC4)c(=O)c23)CC1
  A: 101	B: 103	C: 8	D: -6

> CN(Cc1ccco1)C1CCCCC1NS(=O)(=O)c1ccc(Cl)cc1 (configuration not stated)
  A: 101	B: 103	C: 3	D: -4

> CC1(CC(=O)N/N=C/c2ccc(-c3cccc(C(F)(F)F)c3)o2)OCCO1
  A: 98	B: 102	C: -13	D: -40

> COc1ccc(/C=C/C(=O)NCCN2CCOCC2)cc1S(=O)(=O)N1CCCCC1
  A: 102	B: 104	C: 7	D: 14

> Cc1nn(CCC#N)c2c1P(=S)(N1c3ccccc3CC1C)/C(=C1\N(C)c3ccccc3C1(C)C)C=N2 (configuration not stated)
  A: 98	B: 96	C: -60	D: 57*

> CC1(C)CC(=O)C=C(NCc2ccco2)C1
  A: 102	B: 103	C: -17	D: 12

> CC(C)CNC1=NCCCS1
  A: 103	B: 100	C: ·	D: -3

> Cc1ccc(N2C(=O)CSC23C(=O)N(CN2CCN(c4ccccc4F)CC2)c2ccccc23)cc1 (configuration not stated)
  A: 99	B: 101	C: -2	D: 3

> CCOc1cc2c(cc1CNCC(c1cccs1)N1CCN(C)CC1)OC(C)C2 (configuration not stated)
  A: 95	B: 100	C: 14	D: -2

> COc1cc(OC)cc(C(=O)c2ccc(C(=O)NC3(c4ccccc4)CC3)cc2)c1
  A: 103	B: 110	C: -16	D: ·

> O=C(CCc1ccc(S(=O)(=O)N2CCOCC2)cc1)OCC(=O)c1ccc2c(c1)OCCO2
  A: 103	B: 109	C: -6	D: 20

> CC(C)NC(=O)CN1C(=O)c2cccnc2Oc2ccccc21
  A: 101	B: 105	C: 0	D: -8

> COc1ccc(NCN2C(=O)CCC2=O)cc1
  A: 101	B: 105	C: 2	D: 46

> Cc1cc(C)cc(NC(=O)c2ccccc2C(=O)O)c1
  A: 107	B: 111	C: 4	D: ·

> CN(Cc1ccccc1)C(=O)/C=C/C(=O)O
  A: 104	B: 101	C: -22	D: -3

> O=S(=O)(c1ccccc1)N1CCCC(C(F)(F)F)C1 (configuration not stated)
  A: 107	B: 100	C: -64	D: -2

> Cc1cc(N=Cc2cc(Cl)cc(Cl)c2O)no1
  A: 68	B: 123	C: -66	D: 11

> CCN1C(=O)CC(N2CCC(CCc3ccc(OC)cc3)CC2)C1=O (configuration not stated)
  A: 106	B: 103	C: -10	D: -16

Quoted at random: three records from the list
Key to letters: A = PV pol inh; B = PV pol inh intensity; C = Mtb MenB inh; D = Mtb MbtI inh
> Cc1cc(C)cc(NC(=O)c2ccccc2C(=O)O)c1
  A: 107	B: 111	C: 4	D: ·

> Cc1cc(N=Cc2cc(Cl)cc(Cl)c2O)no1
  A: 68	B: 123	C: -66	D: 11

> COc1cc(OC)cc(C(=O)c2ccc(C(=O)NC3(c4ccccc4)CC3)cc2)c1
  A: 103	B: 110	C: -16	D: ·

More records
Key to letters: A = PV pol inh; B = PV pol inh intensity; C = Mtb MenB inh; D = Mtb MbtI inh
> OC(CN1CCN(C2c3ccccc3-c3ccccc32)CC1)c1ccccc1 (configuration not stated)
  A: 102	B: 107	C: -2	D: -3

> N#CC(C#N)=Cc1ccc(-c2ccc(SC(F)F)cc2)o1
  A: 54	B: 246	C: -39	D: -10

> NC(=O)c1nsc(C(=O)N(CCc2ccccc2)C(C(=O)NC2CCCC2)c2ccco2)c1N (configuration not stated)
  A: 102	B: 100	C: -45	D: -23

> Cc1cc(C)c(C#N)c(N)c1C#N
  A: 99	B: 100	C: -11	D: 104

> O=C(COC(=O)/C=C/c1ccc(F)cc1)Nc1ncccn1
  A: 84*	B: 92*	C: -39	D: -4

> Cc1ccc(NC(C)c2cc(Cl)ccc2O)cc1 (configuration not stated)
  A: 101	B: 104	C: 5	D: -14

> CC(Nc1ccccc1)C(=O)Nc1cc(C(F)(F)F)ccc1Cl (configuration not stated)
  A: 100	B: 99	C: ·	D: -11

> COc1ccc(C(=O)CSc2nc3cc(C)ccc3cc2C#N)cc1
  A: 107	B: 124	C: -3	D: ·

> O=C(O)CSc1nc2c(c(C(F)(F)F)n1)CCc1ccccc1-2
  A: 101	B: 103	C: 20	D: 18

> Cc1nc(-c2ccc(S(=O)(=O)NCCCN)s2)cs1
  A: 100	B: 100	C: -21	D: 17

> Cn1cc(C(=O)N2CCN(c3cccc(Cl)c3)CC2)c(=O)c2cc(S(=O)(=O)N3CCOCC3)ccc21
  A: 101	B: 104	C: -6	D: -7

> COc1ccc(OCC(=O)OC2CCN(C)CC2)cc1
  A: 106	B: 100	C: -47	D: -8

> O=C(O)c1ccc(N2CCOCC2)cc1
  A: 102	B: 103	C: 11	D: -12

> COC(=O)c1cc(OC)c(OC)cc1NCC(=O)N1CCOCC1
  A: 99	B: 92	C: -23	D: 27

> CO[C@@]1(NC(=O)C2SC(=C(C(N)=O)C(=O)O)S2)C(=O)N2C(C(=O)O)=C(CSc3nnnn3C)CS[C@@H]21 (some centres not stated)
  A: 100	B: 101	C: -1	D: 6
